Screening results from PubChem.
Cruzain inh noDet: cruzain (T. cruzi) inhibition without detergent. purified cruzain, Z-FR-AMC fluorescence, no detergent. Potency, µM, for inactives: max response, negative = inhibition, usual class: inhibitors. 200,000 tested, 2.3% active;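 note: plate controls were enzyme without inhibitor for no effect and buffer without enzyme for full effect; nearly all actives have a fitted effect of over 40% in size; top concentration of the series not given in the record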
Target sequence (P25779 123-467 limits assumed): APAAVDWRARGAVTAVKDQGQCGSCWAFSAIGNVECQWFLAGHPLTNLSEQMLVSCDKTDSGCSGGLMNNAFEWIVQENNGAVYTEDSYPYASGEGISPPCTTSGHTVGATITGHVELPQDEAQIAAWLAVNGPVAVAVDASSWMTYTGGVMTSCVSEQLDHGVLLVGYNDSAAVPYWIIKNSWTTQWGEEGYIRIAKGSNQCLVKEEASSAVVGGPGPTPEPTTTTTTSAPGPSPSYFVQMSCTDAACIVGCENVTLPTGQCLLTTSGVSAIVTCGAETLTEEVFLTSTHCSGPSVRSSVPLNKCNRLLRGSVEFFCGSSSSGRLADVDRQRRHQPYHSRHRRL
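Detergent-free condition (0.00005% Triton X-100) in acetate buffer pH 5.5 with DTT. 1.5 nM enzyme and compound were pre-mixed 15 min, then 2 uM Z-FR-AMC substrate added; reaction progress from fluorescence change between first and third reads (60 s).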
Cruzain inh Det: cruzain (T. cruzi) inhibition with detergent; 200,000 tested, 0.43% active; purified cruzain, Z-FR-AMC fluorescence, 0.01% Triton; Potency, µM, inactives show max response, negative = inhibition, hits mostly inhibitors; P25779; AID 1478;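 note: plate controls were neutral wells for no effect and buffer without enzyme for full effect; nearly all actives have a fitted effect of over 40% in size; top concentration of the series not given in the record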
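Cysteine protease activity tested under reducing, mildly acidic conditions (100 mM sodium acetate pH 5.5, 5 mM DTT) plus 0.01% Triton X-100. Cruzain 1.5 nM; substrate Z-FR-AMC 2 uM; 15 min compound preincubation at room temperature.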
An asterisk follows results filed as active; ? = inconclusive; & = joins results of further samples. Calls come from the whole dose curve; as a rule, active = well fitted curve in the direction sought with a large enough effect; inconclusive = small, poorly fitted or top-dose-only effect, or another doubt; inactive = no such curve, though single readings can be large; an effect the other way counts as inactive or inconclusive. Potency is the fitted concentration of half-maximal effect. Not all compounds are listed (hit frequency here may not be typical).

SMILES	Cruzain inh noDet	Cruzain inh Det
CNC(=O)[C@@H](Cc1ccccc1)N(C)C(=O)[C@@H](Cc1ccc2ccccc2c1)N(C)C(=O)/C=C/CC(C)(C)N	2%	-2.5%
COc1ccccc1-c1cc(=O)c2cc(O)ccc2o1	6%	-3.6%
NC(=O)CCCCC(N)=O	3%	1.7%
Nc1cc(Cl)c(N)c(Cl)c1	-2%	2.6%
COC(=O)[C@@H](NC(=O)O[C@@H]1C(=O)c2cc(Br)ccc2O[C@H]1c1ccc2c(c1)OCO2)C(C)C	-9%	-3.1%
CCN(CC)[C@@H](C)CN1c2ccccc2Sc2ccccc21	-22%	-7.3%
COC(=O)[C@H]1C[C@@H]1[C@H](NC(=O)c1cc(C)nn1C)c1ccccc1	0%	-3.8%
CC1(C)SC2C(N3C(=O)C(c4ccccc4)NC3(C)C)C(=O)N2C1C(=O)O (stereo not drawn)	?	-4.9%
CNC(=O)C1(C)C=CCN1C(=O)OC (stereo not drawn)	-6%	9.4%
C[C@@H](C(=O)NCc1ccc(C(F)(F)F)nc1)[C@H]1C[C@]1(C)[C@H](NC(=O)OCc1ccccc1)c1ccccc1	?	-3.0%
Cc1cc(O)c(C(C)C)cc1Cl	5%	-0.9%
CCOc1ccccc1-c1ccc(C(=O)O)s1	?	-24%
c1ccccc1	-7%&-2%	3.2%&-0.3%
O=C(O)c1ccc(NS(=O)(=O)c2ccsc2C(=O)O)cc1	-2%	-2.6%
CC(C)C[C@H]1C(=O)N2CCC[C@@H]2[C@@]2(O)O[C@](NC(=O)[C@@H]3C=C4c5cccc6[nH]cc(c56)C[C@@H]4N(C)C3)(C(C)C)C(=O)N12	-2%	-1.1%
N#CCCCS(=O)(=O)c1nnnn1-c1ccc(F)cc1Br	0%	2.7%
Nc1ccccc1S(=O)(=O)O	-9%	-3.1%
Cc1ccc(N=C=O)cc1N=C=O	-19%	5.8%
Cc1ccc2c(c1)c1c3n2CCN[C@H]3CCC1	3%&-17%	1.6%&-2.7%
CC(C)NC(=O)[C@@H]1C[C@H]1[C@@H](NC(=O)OCc1ccccc1)c1ccccc1	-4%	1.3%
NCCC[C@@H](CC(=O)N[C@@H]1CCCC[C@H]1C(=O)N[C@H](CC(=O)N[C@@H](CCC(=O)O)CC(=O)O)Cc1c[nH]c2ccccc12)NC(=O)C[C@H](Cc1ccccc1)NC(=O)[C@@H]1CNCC[C@H]1N	-1%	0.5%
CCC(=O)OCC(=O)[C@@]1(OC(=O)CC)[C@H](C)C[C@@H]2[C@@H]3[C@H]([C@@H](O)C[C@@]21C)[C@]1(C)C=CC(=O)C=C1C[C@@H]3Cl	?	-3.6%
COC(C)C(O)(C(=O)OC1=CCN2CC[C@H](O)[C@H]12)C(C)C (stereo partly drawn)	1%	4.6%
Cc1ccc(S(=O)(=O)NC(=O)O[C@@H]2C(=O)c3cc(Br)ccc3O[C@H]2c2ccc3c(c2)OCO3)cc1	-5%	1.4%
CO[C@H]1C=CO[C@]2(C)Oc3c(C)c(O)c4c(O)c(c5c(c4c3C2=O)NC2(CCN(CC(C)C)CC2)N=5)=NC(=O)C(C)=CC=C[C@@H](C)[C@@H](O)[C@@H](C)[C@@H](O)[C@@H](C)[C@@H](OC(C)=O)[C@@H]1C	13%	0.7%
C[C@@H](O)CCC[C@H](O)/C=C/[C@@H]1[C@@H](C/C=C\CCCC(=O)O)[C@@H](O)C[C@H]1O	-2%	0.5%
COC(=O)[C@H]1CC=C[C@H]2CCN(Cc3ccc(Cl)c(Cl)c3)C(=O)[C@@H]12	24%	-3.9%
COc1ccc2c(c1)O[C@@H](c1cccc(C(F)(F)F)c1)[C@H](OC(=O)NCc1ccco1)C2=O	-11%	-3.6%
ClCC(Cl)Cl	9%	4.4%
CC(C)C[C@@H](CC(=O)N[C@@H](CCC(=O)O)CC(=O)O)NC(=O)[C@@H]1CNCC[C@H]1NC(=O)C[C@H](CCCN)NC(=O)C[C@H](Cc1c[nH]c2ccccc12)NC(=O)[C@@H]1CNCC[C@H]1N	-14%	2.2%

In a second layout: entries from further up.
Results follow in this order: Cruzain inh noDet | Cruzain inh Det
> C[C@@H](O)CCC[C@H](O)/C=C/[C@@H]1[C@@H](C/C=C\CCCC(=O)O)[C@@H](O)C[C@H]1O
 : -2% | 0.5%
> CO[C@H]1C=CO[C@]2(C)Oc3c(C)c(O)c4c(O)c(c5c(c4c3C2=O)NC2(CCN(CC(C)C)CC2)N=5)=NC(=O)C(C)=CC=C[C@@H](C)[C@@H](O)[C@@H](C)[C@@H](O)[C@@H](C)[C@@H](OC(C)=O)[C@@H]1C
 : 13% | 0.7%
> COc1ccc2c(c1)O[C@@H](c1cccc(C(F)(F)F)c1)[C@H](OC(=O)NCc1ccco1)C2=O
 : -11% | -3.6%
> COC(=O)[C@H]1CC=C[C@H]2CCN(Cc3ccc(Cl)c(Cl)c3)C(=O)[C@@H]12
 : 24% | -3.9%

Looked up above.
In Cruzain inh Det, CO[C@H]1C=CO[C@]2(C)Oc3c(C)c(O)c4c(O)c(c5c(c4c3C2=O)NC2(CCN(CC(C)C)CC2)N=5)=NC(=O)C(C)=CC=C[C@@H](C)[C@@H](O)[C@@H](C)[C@@H](O)[C@@H](C)[C@@H](OC(C)=O)[C@@H]1C is listed with 0.7%
In Cruzain inh Det, COc1ccc2c(c1)O[C@@H](c1cccc(C(F)(F)F)c1)[C@H](OC(=O)NCc1ccco1)C2=O is listed with -3.6%
In Cruzain inh Det, CC(C)NC(=O)[C@@H]1C[C@H]1[C@@H](NC(=O)OCc1ccccc1)c1ccccc1 is listed with 1.3%
In Cruzain inh Det, COC(=O)[C@H]1CC=C[C@H]2CCN(Cc3ccc(Cl)c(Cl)c3)C(=O)[C@@H]12 is listed with -3.9%
In Cruzain inh noDet, NCCC[C@@H](CC(=O)N[C@@H]1CCCC[C@H]1C(=O)N[C@H](CC(=O)N[C@@H](CCC(=O)O)CC(=O)O)Cc1c[nH]c2ccccc12)NC(=O)C[C@H](Cc1ccccc1)NC(=O)[C@@H]1CNCC[C@H]1N is listed with -1%
In Cruzain inh Det, Nc1ccccc1S(=O)(=O)O is listed with -3.1%
In Cruzain inh noDet, Cc1ccc(S(=O)(=O)NC(=O)O[C@@H]2C(=O)c3cc(Br)ccc3O[C@H]2c2ccc3c(c2)OCO3)cc1 is listed with -5%

Remaining list, next part:
SMILES	Cruzain inh noDet	Cruzain inh Det
CN[C@@H]1[C@H](O[C@@H]2O[C@H](CO)[C@@H](N)[C@H](O)[C@@H]2O)O[C@H]2C[C@@H](N)[C@@H](O[C@H]3[C@@H](O)[C@H](O)[C@H](N)C[C@@H]3N)O[C@H]2[C@H]1O	-9%	1.6%
CCC[CH2][Sn]([Cl])([Cl])[Cl]	-5%	0.9%
CCC/C=C(\CCC)C(NC(=O)c1ccco1)c1ccc(C(=O)OC)cc1 (stereo not drawn)	2%	-8.6%
CCCCC/C=C\C/C=C\C/C=C\CCCCC(=O)NCCO	11%	1.9%
Nc1ccccc1[N+](=O)[O-]	-12%	0.8%
Cc1cccc2sc(N)nc12	-3%	7.7%
C[C@H]1/C=C\CC(=O)NCc2cccc(c2)CNC(=O)N[C@H]1c1ccccc1	?	1.6%
CCCn1c(C)nc2c(N3CCCN(Cc4ccccc4)CC3)nc(C)nc21	-2%	-3.9%
C[C@@H](C(=O)Nc1ccc2ccccc2c1)[C@H]1C[C@]1(C)[C@H](NS(=O)(=O)c1ccc2ccccc2c1)c1ccccc1	10µM*	1.8%
O=C(O)c1sccc1S(=O)(=O)Nc1ccccc1N1CCCCC1	2%	-2.4%
CC[C@]12CCCN3CCc4c(n(c5ccccc45)C(=O)C1)[C@H]32	3%	-1.5%
NCCC[C@H](N)CC(=O)N[C@H]1CNC(=O)[C@@H]([C@@H]2C[C@H](O)N=C(N)N2)NC(=O)/C(=C/NC(N)=O)NC(=O)[C@@H](CO)NC(=O)[C@@H](CO)NC1=O	2%	-3.0%
Cc1ccc(C2CC(=O)Oc3ccc(O)cc32)cc1 (stereo not drawn)	0%	-5.1%
NC(CSCC(=O)O)C(=O)O (stereo not drawn)	-1%	4.7%
COC(=O)[C@@]1(Cc2ccccc2)[C@H]2c3cc(C(=O)N(C)C)n(Cc4c(CO)[nH]cc(C)c4=O)c3C[C@H]2CN1C(=O)c1ccccc1	?	2.1%
CC(C)(C)C(O)(CCc1ccc(Cl)cc1)Cn1cncn1 (stereo not drawn)	-12%	-1.2%
C[C@@H](CN(C)C)CN1c2ccccc2Sc2ccccc21	-6%	-3.8%
C=CC(=O)OCCN(C)C	-1%	-2.5%
CCCCC/C=C\C/C=C\C/C=C\CCCCCCC(=O)NCCc1ccc(O)c(O)c1	-2%	3.2%
CC(=O)N[C@@H](c1ccccc1)[C@]1(C)C[C@H]1[C@@H](C)C(=O)Nc1ccc2ccccc2c1	?	-1.6%
CCCCC	6%	11%
O=C1OC(c2cc(I)c(O)c(I)c2)(c2cc(I)c(O)c(I)c2)c2ccccc21	6%	-16%
COC(=O)[C@@]1(Cc2ccc(OC)cc2)[C@H]2c3cc(C(=O)N(C)C)n(Cc4ccsc4Br)c3C[C@H]2CN1C(=O)c1ccccc1	?	1.5%
CC12CC3(O)OC(O1)C1(COC(=O)c4ccccc4)[C@@H]3CC21O[C@@H]1O[C@H](CO)[C@@H](O)[C@H](O)[C@H]1O	-5%	2.0%
CC(=O)OC1CCC2(C)C(=CCC3C2CCC2(C)C3C[C@@H]3O[C@]32C(C)=O)C1 (stereo partly drawn)	-1%	0.0%
COC(=O)C(Cc1ccccc1)NC(=O)C(N)CC(=O)O (stereo not drawn)	-7%	3.1%
C/C(=C\CNc1ncnc2c1ncn2[C@@H]1O[C@H](CO)[C@@H](O)[C@H]1O)CO	-6%	0.6%
CC(C)C[C@@H](CC(=O)N[C@H](CC(=O)N[C@@H]1CCNC[C@H]1C(=O)N[C@H](CC(=O)N[C@@H](CCC(=O)O)CC(=O)O)CC(C)C)C(C)C)NC(=O)[C@@H]1CNCC[C@H]1N	-6%	-4.5%
c1ccc2c3c([nH]c2c1)[C@@H]1[C@H]2CC[C@H]([C@H]4CCCN[C@H]42)N1CC3	-2%	-5.5%
Nc1c(Cl)cc(Cl)cc1Cl	1%	2.0%
CC(C)C[C@@H](CC(=O)N[C@@H](CCC(=O)O)CC(=O)O)NC(=O)[C@@H]1CNCC[C@H]1NC(=O)C[C@H](CCCN)NC(=O)C[C@H](Cc1ccccc1)NC(=O)[C@@H]1CCCC[C@H]1N	-12%	-2.4%
CCCc1cc2c(n1Cc1ccco1)C(C)C1CN(C(=O)c3ccccc3)C(C)(C(=O)OC)C21 (stereo not drawn)	?	-4.9%
OCC1O[C@H](O[C@H]2C(O)C(O)C(O)O[C@@H]2CO)C(O)C(O)C1O (stereo partly drawn)	0%	6.5%
C=CC(=C)C	-5%	3.4%
C[C@H](CCC(=O)NCC(=O)O)[C@H]1CC[C@H]2[C@H]3[C@@H](C[C@@H](O)[C@]12C)[C@]1(C)CC[C@H](O)C[C@@H]1C[C@@H]3O	?	-1.1%
O=C1C=C2C=C[C@H]3C[C@@]2(O1)[C@H]1CCCCN31	-6%	0.1%
CC(C)[C@@H](CC(=O)N[C@@H]1CCCC[C@H]1C(=O)N[C@H](CC(=O)N[C@@H](CCC(=O)O)CC(=O)O)Cc1ccccc1)NC(=O)C[C@H](Cc1ccccc1)NC(=O)[C@@H]1CCCC[C@H]1N	?	6.7%
Cc1cccc([C@H](C)c2cnc[nH]2)c1C	8%	-2.3%
CC(=O)[C@@]1(O)CC[C@H]2[C@H]3C[C@@H](C)C4=CC(=O)C=C[C@]4(C)[C@@]3(F)[C@@H](O)C[C@]21C	2%	3.1%
CC(C)C[C@@H](CC(=O)N[C@@H](CCC(=O)O)CC(=O)O)NC(=O)[C@@H]1CNCC[C@H]1NC(=O)C[C@@H](NC(=O)C[C@H](Cc1ccccc1)NC(=O)[C@@H]1CCCC[C@H]1N)C(C)C	4%	0.7%
CC(C)(C)NC(=O)C(c1ccc(I)cc1)N(CCN1CCOCC1)C(=O)CCCNC(=O)c1ccccc1 (stereo not drawn)	-7%	-5.2%
CCC1=C2CC[C@H]3C(=O)N(c4ccccc4)C(=O)[C@H]3[C@H]2[C@@]2(Cc3ccccc3)C(=NCCOC)OC(=O)N2C1=O	?	-5.7%
COC(=O)CCC(=O)OC1(C)C(=O)C=C2C=C(c3ccc(C#N)cc3)OC=C2C1=O (stereo not drawn)	13%&-10%	3.3%&3.4%
C=CCCl	-1%	5.6%
O=P(O)(O)O[C@@H]1[C@H](O)[C@H](O)[C@@H](OP(=O)(O)O)[C@H](OP(=O)(O)O)[C@H]1O	-6%	1.4%

Random excerpt: 3 entries already listed.
SMILES	Cruzain inh noDet	Cruzain inh Det
C[C@H](CCC(=O)NCC(=O)O)[C@H]1CC[C@H]2[C@H]3[C@@H](C[C@@H](O)[C@]12C)[C@]1(C)CC[C@H](O)C[C@@H]1C[C@@H]3O	?	-1.1%
COC(=O)CCC(=O)OC1(C)C(=O)C=C2C=C(c3ccc(C#N)cc3)OC=C2C1=O (stereo not drawn)	13%&-10%	3.3%&3.4%
CC(=O)[C@@]1(O)CC[C@H]2[C@H]3C[C@@H](C)C4=CC(=O)C=C[C@]4(C)[C@@]3(F)[C@@H](O)C[C@]21C	2%	3.1%

Gathered by group: the compounds so far containing two or more sulfur atoms
SMILES	Cruzain inh noDet	Cruzain inh Det
O=C(O)c1ccc(NS(=O)(=O)c2ccsc2C(=O)O)cc1	-2%	-2.6%
O=C(O)c1sccc1S(=O)(=O)Nc1ccccc1N1CCCCC1	2%	-2.4%
